Screening results from PubChem.
VDR inh: Inhibitors of the vitamin D receptor (VDR): qHTS | hit rate 0.93% among 400,000 | AID 504847, 2011 | Potency, µM, for the others: max response, negative = inhibition, actives largely listed as inhibitors | Vitamin D3 receptor (Homo sapiens), P11473 | VDR-SRC2-3 peptide fluorescence polarization, 2 h; active means well fitted inhibition curve with a large enough effect; inconclusive means small, poorly fitted or top-dose-only effect, or another doubt; inactive means no such curve, though single readings can be large or run the other way; further: series mostly up to about 120 µM
Target sequence (P11473 whole entry, looked up): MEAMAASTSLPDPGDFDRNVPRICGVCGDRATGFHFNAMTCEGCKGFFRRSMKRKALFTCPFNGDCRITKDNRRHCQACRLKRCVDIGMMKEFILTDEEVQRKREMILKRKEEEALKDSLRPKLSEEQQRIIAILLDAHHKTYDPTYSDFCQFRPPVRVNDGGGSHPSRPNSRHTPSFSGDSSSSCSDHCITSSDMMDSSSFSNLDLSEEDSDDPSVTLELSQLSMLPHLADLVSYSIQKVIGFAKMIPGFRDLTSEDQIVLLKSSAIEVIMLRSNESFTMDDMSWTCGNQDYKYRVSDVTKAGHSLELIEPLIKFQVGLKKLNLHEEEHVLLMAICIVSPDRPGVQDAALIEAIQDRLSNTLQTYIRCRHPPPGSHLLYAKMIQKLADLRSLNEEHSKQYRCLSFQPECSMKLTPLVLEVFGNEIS
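Reagent solutions, kept cold and dark, are dispensed first; compounds are then pinned in at 23 nl, plates briefly spun, and incubated 2 h at ambient temperature. Inhibition of VDR–SRC2-3 peptide binding is read by fluorescence polarization.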
* marks the source's active call; other numbers are inactive results; ? = inconclusive; & = joins results of further samples. On the % scale 0 is the no-effect control and ±100 the full control effect; potency means the concentration at half of the fitted maximal effect.

item	SMILES	VDR inh
1	C/C(Cl)=C\CNC(C)c1ccccc1 (stereo not given)	-9.0%
2	Oc1ccc(CN2CCCCC2)c2cccnc12	-6.6%
3	CCNC(=O)NC(C(=O)OC)C12CC3CC(CC(C3)C1)C2 (stereo not given)	-21.8%
4	CCOc1ccc(CCNC(=O)c2ccc3c(c2)N(Cc2ccc(C)cc2)CCS3)cc1	-9.2%
5	O=C(COC(=O)/C=C/c1ccc(Cl)c(Cl)c1)NC1CCCC1	-7.0%
6	CNC(=S)NNC(=O)c1ccccc1Cl	8.4%
7	COc1ccc(C2NC(=S)NC(C)=C2C(=O)N2CCOCC2)cc1 (stereo not given)	-11.3%
8	CN1C(C(=O)Nc2ccc(C(=O)O)cc2)=C(O)c2ccccc2S1(=O)=O	17.7%
9	COc1ccc(N2CCN(C(=O)c3ccc(NC(=O)C4=CSCCO4)cc3)CC2)cc1	-23.8%
10	O=C(NC(=S)NC1CCCc2ccccc21)c1ccc(F)cc1 (stereo not given)	?
11	CC(C)Cc1ccc(/C=C/C(=O)N2CCCCC2)cc1	-10.8%
12	O=C(NN1C(=O)/C(=C/c2cccnc2)SC1=S)C(c1ccccc1)c1ccccc1	13.1%
13	CCc1ccc(OCCCC(=O)Nc2ccc(S(=O)(=O)Nc3cc(C)nc(C)n3)cc2)cc1	2.1%
14	CC(=O)Nc1cc(NC(C)=O)c(N=Nc2ccccc2)cc1C	-13.2%
15	O=C(NCCc1cccc(F)c1)C1CCN(S(=O)(=O)c2ccccc2)CC1	-2.1%
16	CCCc1cc(C(=O)Nc2cc(OC)ccc2OC)cs1	1.2%
17	Cc1ccc(N(CC(=O)NCc2ccc(F)cc2)S(=O)(=O)c2c(C)nn(C)c2C)cc1	5.6%&-3.0%
18	CN(Cc1nc(-c2ccccc2)no1)C(=O)c1ccco1	-0.3%
19	O=C(CSc1ncc(-c2ccccc2)[nH]1)Nc1cccc(Br)c1	-0.4%
20	O=C1CCC/C1=c1\s/c(=C/c2cccnc2)c(=O)n1-c1ccccc1	-2.4%
21	CC(C)(C)c1nnc(NC(=O)CCn2cnc3ccccc3c2=O)s1	-24.7%
22	Cc1ccccc1CN1C(=O)C(O)(CC(=O)c2ccncc2)c2ccccc21 (stereo not given)	-22.7%
23	COc1ccc(CCNc2oc(COc3ccc(F)cc3)nc2C#N)cc1	-7.2%
24	CC1=CC(c2ccccc2)n2nc(NC(=O)CCC(=O)O)nc2N1 (stereo not given)	7.0%

Reprinted from the entries so far for reference:
item	SMILES	VDR inh
19	O=C(CSc1ncc(-c2ccccc2)[nH]1)Nc1cccc(Br)c1	-0.4%
20	O=C1CCC/C1=c1\s/c(=C/c2cccnc2)c(=O)n1-c1ccccc1	-2.4%
21	CC(C)(C)c1nnc(NC(=O)CCn2cnc3ccccc3c2=O)s1	-24.7%
22	Cc1ccccc1CN1C(=O)C(O)(CC(=O)c2ccncc2)c2ccccc21 (stereo not given)	-22.7%
23	COc1ccc(CCNc2oc(COc3ccc(F)cc3)nc2C#N)cc1	-7.2%
24	CC1=CC(c2ccccc2)n2nc(NC(=O)CCC(=O)O)nc2N1 (stereo not given)	7.0%

Next part:
item	SMILES	VDR inh
25	COc1ccc(Cc2nnc(NC(=O)CS(=O)(=O)Cc3ccccc3)s2)cc1	-6.1%
26	CN(CC(=O)Nc1cccc(F)c1)C(=O)c1cccc(S(=O)(=O)N2CCN(c3ccccc3)CC2)c1	-2.6%
27	CC(C)C[C@@H](NC(=O)C1CCC(CNC(=O)[C@@H]2CCCN2C(=O)OC(C)(C)C)CC1)C(=O)O (stereo not given in full)	5.6%
28	O=C(c1ccccc1)c1c(O)nc(-c2ccccc2)n(-c2ccccc2)c1=O	5.4%
29	COC(=O)C1=CN(C(C)C)C=C(C(=O)OC)C1c1cc2c(cc1Br)OCO2	1.7%
30	N#C/C(=C\c1cccs1)C(=O)c1ccccc1Cl	35.5µM*
31	CCN(c1ccccc1)S(=O)(=O)c1ccc(C(=O)N(CCCN(C)C)c2nc3cc4c(cc3s2)OCO4)cc1	-16.8%
32	Cc1ccc(-c2n[nH]c(=S)n2/N=C/c2cc3c(cc2[N+](=O)[O-])OCO3)cc1	-0.7%
33	CCN(CC)S(=O)(=O)c1ccc(NC(=O)CN(c2cccc(F)c2)S(C)(=O)=O)cc1	14.3%
34	COc1cccc(NC(=O)NCCCN2CCN(c3ccc(F)cc3)CC2)c1	15.0%
35	O=C(CC1N=C2c3ccccc3N=C(SCC(=O)Nc3cccc(C(F)(F)F)c3)N2C1=O)NCc1cccs1 (stereo not given)	-19.7%
36	Cc1ccc(S(=O)(=O)Oc2ccc(/C=N/NC(=O)c3ccncc3)cc2)cc1	-2.6%
37	Cc1ccc(/C=C/c2nc3ccccc3c(=O)n2CCc2ccccc2)cc1	-24.3%
38	CCN(CC)CCCNC(=O)CN1N=C(c2ccc(OC)cc2)CCC1=O	2.2%&8.8%
39	O=C(CN1CCSc2ccccc21)N1CCN(c2ccc(F)cc2)CC1	8.2%
40	COc1ccc(Br)cc1CN1C(=O)c2ccccc2C1C(=O)NC1CCCCCC1 (stereo not given)	0.5%
41	c1ccc(N(c2ccccc2)c2nc(N3CCCC3)nc(-n3ccnc3)n2)cc1	-1.0%
42	Cc1ccc(NC(=O)c2nc(S(=O)(=O)Cc3ccccc3C)ncc2Cl)cc1C	?
43	CCOC(=O)C1CCCN(C(=O)Cn2ncc3c4ccccc4n(Cc4ccccc4)c3c2=O)C1 (stereo not given)	18.7%
44	O=C(COc1cccnc1[N+](=O)[O-])NCc1ccc2c(c1)OCO2	4.1%
45	CCOc1ccccc1NC(=O)c1ccc(NC(=O)C2CCCO2)cc1 (stereo not given)	-2.2%
46	COc1ccc(/C(C)=N/OCC(=O)N2CC3(C)CC2CC(C)(C)C3)cc1 (stereo not given)	-7.1%
47	Cc1ccc(-c2[nH]c(=O)n3ccncc23)s1	20.0%
48	O=C(CSc1nnnn1-c1ccccc1)N1CCN(C(=O)c2ccco2)CC1	4.4%
49	O=C(c1cc2cc3ccc(Cl)cc3nc2o1)N1CCCCCC1	-5.4%
50	CC(=O)N1CCOc2ccc(S(=O)(=O)NC(C)c3ccccc3)cc21 (stereo not given)	-21.2%
51	COc1cccc(/C=N/NC(=O)CNC(=O)c2ccc3c(c2)OCCO3)c1O	?
52	CCOc1ccc(CCNC(=O)c2cc(-c3ccccc3)c(N3CCOCC3)s2)cc1OCC	-3.0%
53	COc1cc(/C=C2\SC(=S)N(C(C(=O)O)c3ccccc3)C2=O)ccc1O (stereo not given)	-18.4%
54	CCC(Oc1ccccc1)C(=O)Nc1ccccc1N1CCCCC1 (stereo not given)	-15.7%
55	O=C(CN(Cc1ccco1)C(=O)CCC(=O)Nc1nccs1)NCc1ccccc1	-11.6%
56	CCC(=O)Nc1ccc(Cl)c(NC(=O)c2c(OC)cccc2OC)c1	-9.2%
57	Cc1cccc(CC(=O)NCCn2c(C)cc3ccccc32)c1	-21.1%
58	COC(=O)c1c(SC)nc2ccccc2c1OCc1ccc(Cl)cc1	2.8%
59	CCCCCC(=O)Nc1nc(C)c(-c2csc(Nc3ccccc3OCC)n2)s1	-4.9%
60	CC1CCN(C(=O)COC(=O)c2cc(Cl)c3c(c2)OCO3)CC1	-8.0%
61	CN1CCN(NC(=O)c2ccc(Br)s2)CC1	?
62	COc1ccccc1CNC(=O)CN1C(=O)NC2(CCCc3ccccc32)C1=O (stereo not given)	-8.8%
63	O=C(COC(=O)c1ccccn1)Nc1nccs1	10.2%
64	O=c1cc(O)c2c(=O)[nH]c(=O)n(-c3ccccc3)c2[nH]1	20.6%
65	Cc1ccc(NS(=O)(=O)c2ccc(C(=O)NCc3ccc(S(N)(=O)=O)cc3)cc2)cc1	11.0%
66	Cc1cc(Cl)ccc1NC(=O)CSc1nnc(-c2ccncc2)n1Cc1ccco1	2.4%
67	C=CCc1cccc2ccc(=O)oc12	-14.1%
68	COc1cc(/C=N/NC(=O)CSc2ccccn2)ccc1O	18.2%
69	Cc1ccc(COc2ccsc2C(=O)O)cc1	-5.1%
70	COc1cc(/C=N/NC(=O)c2cc(C)oc2C)cc(OC)c1OC	-11.1%
71	CCOC(=O)c1[nH]c2ccc(OCC)cc2c1NC(=O)CN1CCC2(CC1)OCCO2	8.5%
72	CCOC(=O)C1=NN(C(=O)Cc2ccccc2)C(O)(c2ccc(Cl)cc2)C1 (stereo not given)	-9.8%
73	COc1ccc(C(=O)Nc2ccc(OCC(F)(F)C(F)F)c(C(F)(F)F)c2)cc1OC	2.0%
74	O=C(Nc1nc2n(n1)C(c1ccccc1)CC(c1ccc(Cl)cc1)N2)c1ccco1 (stereo not given)	-13.0%
75	O=[N+]([O-])c1ccc(NN=Cc2cccc(O)c2)nc1	2.6%
76	CCOc1ccc(NC(=O)Nc2cc(C)ccc2F)cc1	-7.1%
77	Nc1nc(NC(=O)/C=C/c2ccc(F)cc2)nn1-c1ccccc1	-11.6%
78	Cc1ccc(S(=O)(=O)N(C)C[C@@H]2Oc3c(NC(=O)C4CC4)cccc3C(=O)N([C@@H](C)CO)C[C@@H]2C)cc1	2.6%
79	CCCCNc1nc2c(S(=O)(=O)c3ccc(C)cc3)nnn2c2ccsc12	-10.0%
80	CCOC(=O)c1nnn(CC(=O)NC(=O)Nc2ccccc2F)c1C(=O)OCC	1.1%
81	Cc1c(C(=O)NC(C)C)oc2c1-c1[nH]ncc1CC2	-3.2%
82	CC(c1ccco1)N(C(=O)C12CC3CC(CC(C)(C3)C1)C2)c1ccccn1 (stereo not given)	12.4%
83	COC(=O)COc1ccc(C(=O)OC)cc1	8.9%
84	O=C(NCCc1ccccc1)c1cc(-c2ccc(Cl)c(Cl)c2)on1	4.2%

Additional compounds:
item	SMILES	VDR inh
85	COc1ccc(C(=O)NCC(c2ccc(N(C)C)cc2)N2CCCC2)c(OC)c1 (stereo not given)	8.9%
86	COc1ccc([N+](=O)[O-])cc1NC(=O)C(C)OC(=O)c1cccnc1Cl (stereo not given)	4.1%
87	Nc1nc(SCC(=O)NNc2c(Cl)cc(Cl)cc2Cl)n[nH]1	-14.7%
88	COCCCNC(=O)CCCn1c(=O)c2ccccc2n(CC(=O)Nc2c(C)cc(C)cc2C)c1=O	3.3%
89	CCc1nnc(NC(=O)CC(C)c2ccccc2)s1 (stereo not given)	10.9%
90	Cc1ccccc1Cn1c2ccccc2c2cnn(CC(=O)N3CCC(C)CC3)c(=O)c21	4.6%
91	Cc1ccc(C(=O)OCC(=O)Nc2ccccc2Sc2ccccc2)cc1C	7.3%
92	CCOc1ccc(C(=O)Nc2ccc(-c3nc4ccccc4[nH]3)cc2)cc1[N+](=O)[O-]	-3.7%
93	O=C1CC(=O)N(CCc2ccc(F)cc2)C(=O)N1	?
94	O=C(N/N=C/c1cc([N+](=O)[O-])ccc1O)c1cc(-c2ccccc2)nc2ccccc12	-8.8%
95	CC1(C)NC(=O)N(CC(=O)O)C1=O	-11.7%
96	CCOC(=O)c1sc(NC(=O)C(C)C)c(C#N)c1C	28.2µM*
97	C/C(CC(=O)Nc1cccnc1)=N\NC(=O)C(=O)NC(C)C	-10.3%
98	N#CCc1nc(-c2cc3ccccc3oc2=O)cs1	-13.7%
99	CC(C)NC[C@H](O)c1ccc(NS(C)(=O)=O)cc1	-7.4%
100	COCC(=O)N1CCC(Oc2ccc(C(=O)N3CCSCC3)cc2)CC1	-7.1%
101	Cc1ccc(CNC(=O)CCNC(=O)Cn2ccc3ccccc3c2=O)cc1	2.0%
102	CC(C)(C)c1ccc(S(=O)(=O)NCC2CCCO2)cc1 (stereo not given)	-19.9%
103	c1cncc(-c2nnc(SCc3nc4ccccc4[nH]3)o2)c1	-7.0%
104	Cc1ccc(OCCCNC2CCCC2)cc1	-23.2%
105	CC1CCN(CCNC(=O)c2ccc3c(=O)n(Cc4ccc(Cl)cc4)c(=S)[nH]c3c2)CC1	-2.1%
106	Cc1ccc(N2C(=O)c3oc4ccccc4c(=O)c3C2c2cccc(O)c2)nc1 (stereo not given)	-16.2%
107	O=c1[nH]c2ccc(Br)cc2c(-c2ccccc2)c1N1CCOCC1	-0.5%
108	O=C(O)c1c[nH]c2ccc(S(=O)(=O)N3CCN(c4ccc(F)cc4)CC3)cc2c1=O	-2.1%
109	ClCC1CSC(=NC23CC4CC(CC(C4)C2)C3)O1 (stereo not given)	17.0%
110	Cc1c(NC(C)C)c(=O)n(-c2ccccc2)n1C	-28.6%&7.4%&-1.9%
111	CC(C)COc1ccc(C(=O)N2CCCCC2CCN2CCCCC2)cc1 (stereo not given)	0.2%
112	O=C(/C=C/c1c[nH]c2ccccc12)c1ccccc1	-12.3%
113	CCOc1ccc(C(C(=O)NC2CCCCC2)N(C(=O)c2ccccn2)c2cccnc2)cc1 (stereo not given)	-2.7%
114	CS(=O)(=O)Nc1ccc(C(=O)Nc2ccc3ccccc3c2)cc1	0.4%
115	CCCC1=C(C(=O)OCC)C(c2ccc(OC)c(C)c2OC)C(C#N)=C(N)O1 (stereo not given)	-1.9%
116	Cc1ccc(Cn2c(O)c(N=NC(=S)Nc3ccccc3F)c3cc(S(=O)(=O)N4CCOCC4)ccc32)cc1	-3.7%
117	CN1CCN(C(=O)C2=C[C@@H](c3ccc(Br)cc3)C[C@@H](OCc3ccc(CO)cc3)O2)CC1	-15.1%
118	CCN(C(=O)COC(=O)c1cc2ccccc2cc1O)C1CCS(=O)(=O)C1 (stereo not given)	-9.2%
119	Cn1c(N)c(C(=O)COC(=O)COc2cccc(Br)c2)c(=O)n(C)c1=O	26.7%
120	O=S(=O)(NCC1COc2ccccc2O1)c1ccccc1F (stereo not given)	-11.1%
121	CSc1nc(C=Nc2ccccc2Cl)c(O)n1Cc1cccc(Cl)c1	-23.1%
122	O=S(=O)(Cc1nnnn1-c1ccccc1)c1ccc(Cl)cc1	-16.8%
123	O=C(C1CCOCC1)N1CCCC(N2CCN(c3ccc(F)cc3)CC2)C1 (stereo not given)	18.9%

A portion of the library. The share of hits here may be higher or lower than overall.
